# Bioassay records: PubChem, PCMD
# Biofilm kill mix = mixtures killing C. albicans biofilm; C. albicans biofilm persisters + clotrimazole, fluorescence viability; primary screen in compound mixtures of four per well; AID 1242; hit rate 0.02% among 120,000; inhibition, % at 7.6 µM;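 active = inhibition above 30.3% in the primary screen of four-compound pools, then above 30% when the compound was retested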;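 note: compounds exposed to preformed 24 h biofilms for 48 h; the number belongs to the whole pool; some results filed as inactive read as strong as hits; inactives centre near 12; 0% = biofilm with clotrimazole alone and 100% = kill control; retested singly at about 60 µM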
#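 System: C. albicans CAF4-2 wild-type biofilms; Medium: RPMI/MOPS medium, pH 7.0; Reagent: Clotrimazole, 50 µg/mL; Times: biofilm formation 24 h, compound exposure 48 h, 37 °C; Detection: 2-h Alamar Blue fluorescence, 535/590 nm excitation/emission; Evaluation: percent inhibition of biofilm viability.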
# The depositor's hits bear a star; & = joins results of further samples. Some of the compounds tested; rates above refer to the full screens.
# Sample of the layout (two entries):
SMILES,Biofilm kill mix
O=C(CCCn1cc([N+](=O)[O-])cn1)NCc1ccccc1,13.5
Cc1ccc(-n2c(SCc3nc4ccccc4c(=O)[nH]3)nnc2-c2ccccc2O)cc1,6.1

# This part in full, previewed entries included:
SMILES,Biofilm kill mix
O=C(CCCn1cc([N+](=O)[O-])cn1)NCc1ccccc1,13.5
Cc1ccc(-n2c(SCc3nc4ccccc4c(=O)[nH]3)nnc2-c2ccccc2O)cc1,6.1
COc1ccc(CCNC(=O)Cn2c(=O)n(-c3cc(F)ccc3F)c(=O)c3sccc32)cc1OC,22.3
COc1ccc(CC(=O)Nc2nc(-c3ccncc3)cs2)cc1,4.0
Cc1nn(S(=O)(=O)N2CCOCC2)c(C)c1Br,8.0
Cc1cc(/C=C2/NC(=O)NC2=O)c(C)n1-c1cccnc1,14.8
COc1cc(OC)c(NC(=O)CCNS(=O)(=O)c2ccc3c(c2)oc(=O)n3C)cc1Cl,9.7
O=C(O)c1cccc(N2C(=O)c3ccc(Oc4ccc(Cl)cc4)cc3C2=O)c1,12.1
CC(=O)Nc1ccc(NC(=O)COC(=O)c2c(C)nn(-c3ccccc3)c2C)cc1,9.6
COc1ccc(C(=O)N/N=C(\C)CC(=O)Nc2ccc3c(c2)OCO3)cc1,2.3
Cc1ccc(NC(=S)N/N=C/c2c(Cl)cccc2Cl)c(C)c1,5.5
COc1cc(C=O)c(Br)cc1OCC(=O)NCc1ccccc1,8.3
O=C(/C=C/c1ccco1)N/C(=C\c1ccco1)C(=O)NCCc1nc2ccccc2[nH]1,8.0
COc1cc(/C=N/N=C2/C(=O)Nc3ccccc32)ccc1O,21.7
CO/N=C/c1cn(-c2ccc(Cl)cc2)nn1,3.4
COc1ccc(C(=O)NCC(=O)N/N=C/c2cccc(OC(=O)c3ccco3)c2)cc1OC,14.4
CCOC(=O)c1csc(-c2sccc2Br)n1,12.8
CCc1nn2c(N)c(/C=C3\C=Nc4ccccc43)c(=O)nc2s1,15.9&13.8
COc1ccc(CNc2nc(C)c([N+](=O)[O-])c(C)c2C#N)cc1,4.3
O=c1[nH]c2cccnc2n1-c1cccc([N+](=O)[O-])c1,24.8
NNC(=O)Cn1c(COc2ccc(Cl)cc2)nc2ccccc21,15.2
O=C(NC1CCCC1)c1ccc(Cn2c(=O)[nH]c3ccsc3c2=O)cc1,9.9
Cc1cc(C(=O)N2CCCC(C(=O)c3cccc4ccccc34)C2)nc(C)n1 (stereo unspecified),1.5
CCc1ccc(C(=O)COC(=O)CNC(=O)COc2ccccc2)cc1,3.8
O=C(CN1C(=O)c2ccccc2S1(=O)=O)c1ccc2c(c1)OCCO2,5.6

# Some of the entries so far, with each value named.
Cc1ccc(-n2c(SCc3nc4ccccc4c(=O)[nH]3)nnc2-c2ccccc2O)cc1
  Biofilm kill mix: 6.1
COc1ccc(CCNC(=O)Cn2c(=O)n(-c3cc(F)ccc3F)c(=O)c3sccc32)cc1OC
  Biofilm kill mix: 22.3
COc1ccc(CC(=O)Nc2nc(-c3ccncc3)cs2)cc1
  Biofilm kill mix: 4.0
Cc1nn(S(=O)(=O)N2CCOCC2)c(C)c1Br
  Biofilm kill mix: 8.0

# Some of the entries so far, tab-delimited.
molecule	Biofilm kill mix
NNC(=O)Cn1c(COc2ccc(Cl)cc2)nc2ccccc21	15.2
COc1ccc(CCNC(=O)Cn2c(=O)n(-c3cc(F)ccc3F)c(=O)c3sccc32)cc1OC	22.3

# Additional structures follow:
SMILES,Biofilm kill mix
COc1ccc(CNC(=O)C(C)c2ccc([N+](=O)[O-])cc2)cc1 (stereo unspecified),0.7
COC(=O)c1ccc(C)c(NC(=O)CCc2cc(OC)c(OC)c(OC)c2)c1,12.9
CC(C)N1C(=O)CCC1C(=O)NCc1cccs1 (stereo unspecified),12.7
Cc1nc2ccccc2nc(C)c1=NOCc1ccc(Cl)cc1Cl,17.2
COc1cccc(C(=O)CN(C(=O)c2ccc(Cl)cc2Cl)N2C(=O)c3ccccc3C2=O)c1,8.4
CCCNC(=O)COC(=O)/C=C/c1cccc(F)c1,0.3
C[C@@H]1CCC[C@]2(O[C@H](CCO)C[C@H](O)[C@H]2O)O1,5.4
O=C(COC(=O)CNC(=O)c1sc2ccccc2c1Cl)Nc1cc(Cl)cc(Cl)c1,16.3
N#CCCn1cc(C(=O)N2CCCCC2)c(-c2cccc([N+](=O)[O-])c2)n1,8.0
Cc1sc2nc(SCC(=O)Nc3ccc(S(=O)(=O)NCCCC(=O)O)cc3)[nH]c(=O)c2c1C,15.1
Cc1nc2c3cc(F)ccc3n(Cc3ccccc3F)c2s1,15.2
Cc1cc(NC(=O)CCCN2C(=O)/C(=C\c3cccs3)SC2=S)no1,13.7
Cc1nn(CC(=O)c2ccccc2)c(=O)c2nn(-c3ccccc3F)c(C)c12,10.4
O=C1NN=C(c2ccc(Br)cc2)CC1c1ccc(Cl)cc1 (stereo unspecified),13.0
Cc1cccc2sc(NNC(=O)c3ccc(S(=O)(=O)N4CCc5ccccc5C4)cc3)nc12,12.8
CCn1ncc(/C=N/NC(=O)c2cc(Cl)ccc2OC)c1C,12.0
COc1ccc(C2C(C#N)=C(N)OC3=C2C(=O)CC(C)(C)C3)cc1Cn1cc([N+](=O)[O-])cn1 (stereo unspecified),11.8
Cc1ccc(-n2c(C)cc(C(=O)COC(=O)c3ccc[nH]c3=O)c2C)cc1C,13.5
CCC(=O)Nc1ccc(C(=O)NNC(=O)c2cc([N+](=O)[O-])cc([N+](=O)[O-])c2)cc1,21.0
O=c1[nH]c(CSc2nnnn2-c2ccc(Cl)cc2)nc2ccccc12,-3.4
Cc1nc(Nc2ccc(Cl)c(Cl)c2)sc1C(=O)Nc1ccccc1,20.1
CC(=O)/C(=N\Nc1ccccc1)Sc1nnc(-c2ccccc2)n1-c1ccccc1,27.7
COc1ccc(-c2nc(SC(CC(=O)NCCO)c3cccs3)n[nH]2)cc1 (stereo unspecified),3.7
COCCn1c(NCc2ccco2)nc2c1c(=O)[nH]c(=O)n2C,11.9
O=C(OCc1c(Cl)cccc1Cl)c1ccncc1,21.1

# The results go on:
SMILES,Biofilm kill mix
CC[C@@]1(O)C(=O)OCc2c1cc1n(c2=O)Cc2cc3c(N)cccc3nc2-1,12.0
O=[N+]([O-])c1cccc(-c2nnc3ccc4ccccc4n23)c1,10.3
O=C(NNS(=O)(=O)c1ccccc1Cl)c1nn(-c2ccc(F)cc2)ccc1=O,23.1
CCNC(=O)CCSc1nnc(-c2ccco2)o1,17.2
Cc1c(C(=O)N2CCc3ccccc32)cnn1C,11.6
CC(C)=NNC(=O)c1c(O)c2ccccc2[nH]c1=O,13.9
CCN(C(=O)CSc1cc(C)c2ccccc2n1)C1CCS(=O)(=O)C1 (stereo unspecified),-5.1
Cc1cc(SCC(=O)c2ccc(O)c(O)c2)nc2ccccc12,9.0
Cc1cc(C)c(NC(=O)COC(=O)CSc2ccc(Br)cc2C)c(C)c1,12.8
NC(=O)CCn1ccc2ccccc21,15.9
COCCn1c(SCC(=O)NC2CCCC2)nc2cccnc21,18.1
CCCc1ccc(-c2cc(C(=O)NC3=NCCS3)c3ccccc3n2)cc1,14.2
CC(C)(C)C(=O)NC(=S)Nc1ccc(F)cc1,11.1
O=C(CSC1=NCCN1)Nc1cccc([N+](=O)[O-])c1,11.3
O=S(=O)(c1ccc(Cl)cc1)N1CCN=C1SCc1cccnc1,19.7
COCCNC(=O)c1ccc(N2CCC3(CC2)OCCO3)c([N+](=O)[O-])c1,14.8
CCN(CC(=O)Nc1ccc2c(c1)OCCO2)C(=O)/C=C/c1ccc(F)cc1,12.2
COc1cccc(CNC(=O)Cc2ccc(Br)cc2)c1,8.8
COc1ccc2oc3cc(C)[n+]([O-])c(-c4ccc(Cl)cc4)c3c2c1,15.9
Cc1cccc(-n2[nH]c3c4c(ccc3c2=O)C(=O)c2ccccc2C4=O)c1,2.5
Cc1sc2ncnc(Sc3ccccc3C(=O)Nc3ccccc3Cl)c2c1C,14.2
Cc1onc(-c2c(Cl)cccc2Cl)c1C(=O)Nc1ccc(Cl)cn1,4.9
O=C(Cn1nnc(-c2cccc(C(F)(F)F)c2)n1)NNS(=O)(=O)c1cccc(C(F)(F)F)c1,12.1
Cc1ccc(NC(=O)c2ccc([N+](=O)[O-])o2)c(C)c1,17.6
Cc1cc(C)cc(NC(=O)c2ccccc2NC(=O)CCC(=O)O)c1,3.6

# Going on with the list:
SMILES,Biofilm kill mix
CCOc1cc(CNCCSc2nnnn2C)cc(Br)c1OCc1ccc(F)cc1,10.0
CCOC(=O)CCSc1nc(C)c2cc(OC)ccc2n1,-6.0
Cn1c(=O)[nH]c(=O)c2c1nc(N/N=C/c1ccncc1)n2Cc1ccc(F)cc1,18.2
Cc1cc(C(F)(F)F)nn1CC(=O)NCc1ccco1,10.5
Cn1nnnc1SC1CC(=O)N(c2ccccc2)C1=O (stereo unspecified),14.2
C=CCc1ccc(O)c(-c2cc(CC=C)ccc2O)c1,-8.6
Cn1c2ccccc2c2nnc(SCC(=O)NCc3ccoc3)nc21,6.7
Cc1ccc(S(=O)(=O)N2CCN(c3ccccc3)CC2)cc1C(N)=O,17.1
COc1ccc(CCNC(=O)COC(=O)c2cc(OC)c(OC)cc2OC)cc1,-5.1
O=C(CCl)N(C/C=C/c1ccccc1)c1ccc2c(c1)OCCO2,4.8
COc1cccc(CC2(CO)CCCN(Cc3[nH]c4ccc(C)cc4c3C)C2)c1 (stereo unspecified),14.6
COCCN(Cc1cc2cc(C)ccc2n2nnnc12)C(=S)Nc1ccccc1C,6.8
CCOC(=O)CSc1ncc(-c2ccc([N+](=O)[O-])cc2)[nH]1,14.7
Cc1ncc(CO)c2c1OC(C)(C)OC2,14.2
Cc1cc(C(=O)N2CCCC(C(=O)c3ccc4ccccc4c3)C2)nn1C (stereo unspecified),13.9
Cc1ccc(-c2[nH]c3cc(C(N)=O)ccc3c(=O)c2O)cc1,14.1
COC(=O)c1c(NC(=O)CC2Sc3ccc(C(F)(F)F)cc3NC2=O)sc(C)c1C (stereo unspecified),16.8
CC(C)CC(=O)OCC(=O)Nc1ccccc1Sc1ccccc1,10.7
CCN(CC)C(=O)CSc1nnnn1-c1ccc(F)c(Cl)c1,9.2
CC(=O)N/C(=C/c1ccc([N+](=O)[O-])cc1)C(=O)O,13.0
O=C(CN1C(=O)NC2(CCCCCCC2)C1=O)NC1CCCc2ccccc21 (stereo unspecified),20.2
Cc1ccc(OCCn2cc(/C=C3\C(=O)NN(c4ccccc4)C3=O)c3ccccc32)cc1,7.4
N#Cc1ccsc1NC(=O)CN1CCN(S(=O)(=O)c2ccc3ccccc3c2)CC1,16.1
Cc1cc(C(=O)Nc2ccon2)c(C)o1,-9.9
CCOC(=O)CC(N)c1cccc([N+](=O)[O-])c1 (stereo unspecified),6.7

# (list continues)
SMILES,Biofilm kill mix
CCOC(=O)C1CCCN(C(=S)Nc2ccc(F)cc2)C1 (stereo unspecified),0.9
O=C(Nc1ccccc1)Nc1nnc(Cc2ccc([N+](=O)[O-])cc2)s1,4.3
O=C(O)CCn1cc(/C=C2/NC(=S)N(c3ccccc3)C2=O)c(-c2ccccc2)n1,5.6
CCn1c(Sc2ccc([N+](=O)[O-])cn2)nnc1-c1ccco1,27.4
COCCn1c(N)c(N(Cc2ccccc2)C(=O)Cc2ccccc2F)c(=O)[nH]c1=O,3.8
Cc1ccc(NC(=S)NN2CCN(C)CC2)c(C)c1,17.2
COc1cccc(/C=N/NC(=O)COc2cccc3cccnc23)c1O,6.8
CC(C)C(C(=O)N1CCN(C(=O)OC(C)(C)C)CC1)n1cc(-c2cn([C@@H](C)C(=O)N3CCN(C(=O)OC(C)(C)C)CC3)nn2)nn1 (stereo partly specified),8.3
COCc1cc(/C=N\NC(=O)COc2ccccc2)ccc1OC,10.1
CCC(=O)c1ccc(OCC(=O)c2ccc3c(c2)NC(=O)CO3)cc1,12.0
CCNCc1cc([N+](=O)[O-])ccc1OCC,13.2
CCOC(=O)c1c(/N=C/c2ccc(C)cc2O)sc2c1CCC2,21.2
Oc1ccccc1/C=N/Nc1cc(N2CCCC2)nc(N2CCCC2)n1,15.7
CCOC(=O)c1sc(NC(=O)c2cccc(S(=O)(=O)N3CCc4ccccc43)c2)c(C#N)c1C,26.8
CSC1=NSC2=NC(=O)/C(=C/c3coc4ccccc4c3=O)C(=N)N12,10.4
Cc1cc(OC(=O)c2ccccc2)c([N+](=O)[O-])c(=O)[nH]1,12.1
CC(C)OP(=O)(OC(C)C)C(C)NC(=O)Cc1ccccc1 (stereo unspecified),18.4
O=C(NC(=S)Nc1cc(Cl)ccc1O)c1cccc(Br)c1,6.8
COc1ccc(NC(C)=O)cc1S(=O)(=O)Nc1ccccc1C(=O)N1CCCC1,15.9
CCn1c(C)nc2cc(C(=O)NNC(=S)Nc3ccccc3Cl)ccc21,10.3
CC(=O)NCCNS(=O)(=O)c1ccc(C)c([N+](=O)[O-])c1,15.1
Clc1ccc(OCc2nc3ccccc3[nH]2)cc1,6.6
Cc1ccc(OCC(=O)NN2C(=O)c3ccccc3C2=O)cc1,19.6
COC(=O)c1ccc(CN2CCN(CCc3ccccc3)C(CCO)C2)cc1 (stereo unspecified),4.0
CCOC(=O)c1nnn(-c2nonc2N)c1-c1ccccc1Cl,17.6

# Going on with the list.
SMILES,Biofilm kill mix
O=C(COc1ccc(-c2ccccc2)cc1)N1CCN(C(=O)c2cccs2)CC1,-1.3
CC(=O)C(Cc1ccc(Cl)nc1)(Cc1ccc(Cl)nc1)C(C)=O,19.7
C/C=C(\C)C(=O)NCCN1C2=NC[C@H](Cc3ccccc3)N2C[C@H]1Cc1ccc(O)cc1,9.9
O=C(Nc1ccc(Cl)cn1)C1CC1,13.3
CN(C)c1ccc(/C=N/NC(=O)C(O)c2ccc(Br)cc2)cc1 (stereo unspecified),17.8
O=C1C=C(c2ccccc2)OC(=O)C1C(=O)c1ccccc1 (stereo unspecified),21.5&10.4
O=C(c1ccc(-c2cccc(Cl)c2Cl)o1)N1CCOCC1,-29.7
